Mtb growth – Mycobacterium tuberculosis H37Rv growth inhibition, putative kinase inhibitor library, confirmatory dose response (AID 2842). M. tuberculosis H37Rv growth inhibition; higher % means a stronger effect; some inactives read as strong as hits. actives 5.2% (n = 24,000). inhibition, % at 10 µg/mL, or IC90 in µg/mL where a hit was titrated;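 active means confirmed in a dose series; about a fifth of its hits are not listed in these tables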;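 further: bacteria incubated one week before Alamar blue readout; 0% = bacteria only wells and 100% = bacteria with high antibiotic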
Numbers without * were called inactive. An excerpt. The share of hits here may be higher or lower than overall.

CCCCC(CC)CNc1nc2c(c(=O)[nH]c(=O)n2C)n1CC(O)COc1cccc(C)c1 (stereo not drawn)
- Mtb growth: -2%

CCOC(=O)COc1ccc2c(C)c(-c3ccc(OC)c(OC)c3)c(=O)oc2c1
- Mtb growth: 2.3µg/mL*

Cc1cc2cc(CCNC(=O)c3ccc(Br)o3)c(=O)[nH]c2cc1C
- Mtb growth: 24%

COC(=O)c1cccc(NC(c2cccnc2)c2ccc3cccnc3c2O)c1 (stereo not drawn)
- Mtb growth: 3%

CCc1ccc(Nc2ncnc3c2cnn3-c2ccc(C)cc2C)cc1
- Mtb growth: 6.5µg/mL*

COc1ccc(CNC(=O)c2c(O)nc3scc(C)n3c2=O)cc1
- Mtb growth: 0%

CC(=O)N1CCc2c(sc(NC(=O)c3ccc(-c4ccccc4)cc3)c2C#N)C1
- Mtb growth: 3%

O=C1CCc2cc(S(=O)(=O)Nc3cccc(C(F)(F)F)c3)cc3c2N1CCC3
- Mtb growth: -1%

O=C1Cc2cc(NS(=O)(=O)c3cc(F)ccc3F)ccc2N1
- Mtb growth: 9%

O=C(NCCCn1ccnc1)C(=O)Nc1cc2c3c(c1)CC(=O)N3CCC2
- Mtb growth: -3%

Cc1n[nH]c(=O)nc1NCCc1ccc(O)cc1
- Mtb growth: -2%

CCN(C1CCS(=O)(=O)C1)S(=O)(=O)c1ccc(Cl)c(Cl)c1 (stereo not drawn)
- Mtb growth: -6%

O=C(CSc1nnc2ccc(-c3ccccn3)nn12)c1ccccc1
- Mtb growth: -10%

COc1ccccc1-n1c(=O)[nH]c2c(C(N)=O)nc(-c3ccc(C(F)(F)F)cc3)nc21
- Mtb growth: -5%

NC(=O)c1c(NC(=O)Cc2ccccc2)sc2c1CCCCC2
- Mtb growth: -6%

O=S(=O)(Nc1nc2ccccc2nc1NCc1ccco1)c1cccc2nsnc12
- Mtb growth: -11%

N=C1C(c2nc3ccccc3s2)=C(O)CN1c1cc(Cl)ccc1Cl
- Mtb growth: -2%

CCOC(=O)CCCSc1nnc(-c2cccnc2)n1-c1ccccc1
- Mtb growth: -7%

Cc1ccc(-c2csc(NC(=O)c3cc(=O)c4ccccc4o3)n2)cc1
- Mtb growth: 7%

c1c2c(cc3sc(N4CCCC4)nc13)OCO2
- Mtb growth: <0.2µg/mL*

CCOCCSc1nc2c(c(=O)n(C)c(=O)n2C)n1Cc1ccccc1
- Mtb growth: 9%

Cc1ccc2cc(CCNC(=O)c3ccccc3Br)c(=O)[nH]c2c1C
- Mtb growth: 2%

CCOC(=O)c1nn(-c2ccc(F)cc2)c(=O)c2c(NC(=O)COC)scc12
- Mtb growth: -5%

COc1ccccc1-c1nc(C(N)=O)c2[nH]c(=O)n(-c3ccccc3F)c2n1
- Mtb growth: -11%

CCOC(=O)c1nn(-c2ccc(F)cc2)c(=O)c2c(NC(=O)COc3ccc(Cl)cc3)scc12
- Mtb growth: -6%

N#Cc1c(NC(=O)c2cc(Cl)sc2Cl)sc2c1CCN(Cc1ccccc1)C2
- Mtb growth: -2%

Cc1c(CCC(=O)O)c(=O)n2c([nH]c3ccccc32)c1C#N
- Mtb growth: 10%

NC(=O)c1ccsc1NC(=O)c1ccc(S(=O)(=O)N2CCCC2)cc1
- Mtb growth: 16%

Cc1ccc(NC(=O)CSc2ccc3nnc(CCNC(=O)c4ccc(F)cc4)n3n2)c(C)c1
- Mtb growth: 0%

COc1ccc(Cl)cc1NC(=O)Cn1ccc2c(OC)cccc2c1=O
- Mtb growth: 3%

Cc1cccc(Cn2cc(S(=O)(=O)c3ccc(F)cc3)c(=O)c3cc(F)ccc32)c1
- Mtb growth: 1%

COc1cccc(-n2c(SCC(=O)Nc3ccccc3C(F)(F)F)nc3c([nH]c4ccccc43)c2=O)c1
- Mtb growth: 63%

CN(C)CCCNC(=O)C(=O)Nc1cc2c3c(c1)CC(=O)N3CCC2
- Mtb growth: 3%

Cc1c(C(N)=O)sc2ncn(Cc3ccc(Cl)cc3)c(=O)c12
- Mtb growth: 4%

CC1CCCN(c2nc3c(c(=O)n(C)c(=O)n3C)n2CCSc2ncccn2)C1 (stereo not drawn)
- Mtb growth: 0%

Fc1ccc2nc(N3CCCCC3)sc2c1
- Mtb growth: 1%

Cc1cc(NC(=O)CSc2nc3c(cnn3-c3ccc(S(N)(=O)=O)cc3)c(=O)[nH]2)no1
- Mtb growth: -8%

Nc1nc(SCC(=O)Nc2nccs2)[nH]c(=O)c1NC(=O)c1ccco1
- Mtb growth: -3%

Cc1ccsc1C1C2=C(COC2=O)Nc2c1c(=O)[nH]c(=O)n2CC(C)C (stereo not drawn)
- Mtb growth: 2%

CCOc1ccc2nc(SC3CC(=O)N(c4ccc(N5CCOCC5)cc4)C3=O)sc2c1 (stereo not drawn)
- Mtb growth: 29%

CCCCN(C)S(=O)(=O)c1ccc(C(=O)Nc2nc3c(s2)CCCC3)cc1
- Mtb growth: -5%

O=C(CC1CCS(=O)(=O)C1)Nc1ccc(Cl)cc1 (stereo not drawn)
- Mtb growth: -12%

Cc1ccc2sc(NNC(=O)C3COc4ccccc4O3)nc2c1C (stereo not drawn)
- Mtb growth: 0.88µg/mL*

N#Cc1c(N)n(-c2ccc(NC(=O)c3cccs3)cc2)c2nc3ccccc3nc12
- Mtb growth: -4%

COc1ccc(N2CC(NC(=O)c3ccccc3Br)CC2=O)cc1 (stereo not drawn)
- Mtb growth: 12%

Cc1ccccc1OCC(=O)Nc1c(C(=O)Nc2ccccc2)oc2ccccc12
- Mtb growth: 3%

Cc1cc2cc(CCNC(=O)c3cccc(F)c3)c(=O)[nH]c2cc1C
- Mtb growth: 6%

Cc1ccc(NCc2cc3cc4c(cc3n(CC(=O)Nc3cc(F)ccc3F)c2=O)OCCO4)cc1
- Mtb growth: 4%

Cc1cc(NC(=O)c2cc(Cl)ccc2[N+](=O)[O-])nc2c1c(=O)oc1ccccc12
- Mtb growth: 2%

O=C(Nc1cccc(Br)c1)c1cnc2sccn2c1=O
- Mtb growth: -5%

Cc1ccc(S(=O)(=O)c2cnc(SCC(=O)Nc3ccccc3Cl)nc2N)cc1C
- Mtb growth: 79%

COC(=O)c1sccc1S(=O)(=O)Nc1ccc(F)cc1Cl
- Mtb growth: 2%

CCN(CC)c1ccc(/C=N/S(=O)(=O)c2ccccc2)cc1
- Mtb growth: 3%

Nc1nc(SCC(=O)NCc2ccc(F)cc2)[nH]c(=O)c1NC(=O)c1ccc(Cl)cc1
- Mtb growth: -6%

COc1cc(/C=C2\SC(=S)N(c3ccc(O)c(C(=O)O)c3)C2=O)cc(OC)c1OC
- Mtb growth: 1%

C=CCn1c(=O)c2c(nc3n(-c4ccccc4)c(C)cn23)n(C)c1=O
- Mtb growth: -4%

Cc1cc(N2CCN(CCOc3cccc4ccccc34)CC2)n2ncc(-c3ccccc3)c2n1
- Mtb growth: 37%

CCc1ccc(NCC(O)Cn2c3ccccc3n3c(=O)cc(C)c(C#N)c23)cc1 (stereo not drawn)
- Mtb growth: 3%

Cc1ccc(NC(=O)CSc2nnc(-c3cccnc3)n2-n2cccc2)cc1
- Mtb growth: 1%

O=C(COc1ccccc1)Nc1nnc(-c2ccc(Cl)cc2)s1
- Mtb growth: 6%

O=C1CN(C(=O)COc2ccc3ccccc3c2)C(c2ccc(F)cc2)c2cc(Cl)ccc2N1 (stereo not drawn)
- Mtb growth: 49%

CCOc1ccc2ccccc2c1C(=O)Nc1c(C(=O)Nc2ccc3c(c2)OCO3)oc2ccccc12
- Mtb growth: -3%

CC1Cc2nc(SCC(N)=O)n(Cc3ccccc3)c(=O)c2S1 (stereo not drawn)
- Mtb growth: -2%

CC1=C(C(=O)Nc2ccc(Cl)cc2)C(c2ccc3c(c2)OCO3)n2ncnc2N1 (stereo not drawn)
- Mtb growth: 27%

Cc1cccc(N=C2NC(=O)/C(=C\c3cccc(O)c3)S2)c1C
- Mtb growth: 78%

O=C(CSc1nnc2ccc(-c3ccccn3)nn12)c1ccc(Cl)cc1
- Mtb growth: -7%

CCOC(=O)c1nn(-c2ccc(C(F)(F)F)cc2)c(=O)c2c(NC(=O)COC)scc12
- Mtb growth: 11%

O=c1[nH]cc(S(=O)(=O)N2CCN(Cc3ccccc3)CC2)c(=O)[nH]1
- Mtb growth: -2%

CC1(C)CC(=O)c2cc3c(N)c(C(=O)NCc4ccccc4)sc3nc2C1
- Mtb growth: 5%

O=C(NCc1ccc(Cl)cc1)NC1CC(=O)N(c2ccc(F)cc2)C1 (stereo not drawn)
- Mtb growth: 14%

O=C(CS(=O)(=O)c1c[nH]c2ccccc12)Nc1ccc(F)cc1
- Mtb growth: 13%

Cc1ccc(-n2c(=O)[nH]c3c(C(N)=O)nc(-c4cccc(O)c4)nc32)cc1C
- Mtb growth: -19%

O=S(=O)(c1ccc(Cl)cc1)c1nnn2c1nc(NCc1ccc(F)cc1)c1ccccc12
- Mtb growth: -7%

O=C(O)c1ccc(NC(=O)c2ccc(Cl)c([N+](=O)[O-])c2)cc1
- Mtb growth: 8%

O=C(/C=C/c1ccccc1)NC(=S)Nc1ccc(Oc2ccccc2)cc1
- Mtb growth: 3%

N#Cc1c(NC(=O)c2ccc(S(=O)(=O)N3CCCCCC3)cc2)sc2c1CCCC2
- Mtb growth: -1%

O=C(c1ccc(F)c(F)c1)N1CCN=C1SCc1cccnc1
- Mtb growth: -7%

CCOC(=O)c1nn(-c2ccc(OC)cc2)c(=O)c2c(NC(=O)c3cccc(C)c3)scc12
- Mtb growth: -6%

Cc1cc(OC(=O)CC2CCCCC2)c([N+](=O)[O-])c(=O)[nH]1
- Mtb growth: -1%

COc1ccc(Cl)cc1C(=O)Nc1c(C(=O)Nc2ccc3c(c2)OCCO3)oc2ccccc12
- Mtb growth: -9%

Overlap with the part before: 6 entries, then new ones.
O=C(/C=C/c1ccccc1)NC(=S)Nc1ccc(Oc2ccccc2)cc1
- Mtb growth: 3%

N#Cc1c(NC(=O)c2ccc(S(=O)(=O)N3CCCCCC3)cc2)sc2c1CCCC2
- Mtb growth: -1%

O=C(c1ccc(F)c(F)c1)N1CCN=C1SCc1cccnc1
- Mtb growth: -7%

CCOC(=O)c1nn(-c2ccc(OC)cc2)c(=O)c2c(NC(=O)c3cccc(C)c3)scc12
- Mtb growth: -6%

Cc1cc(OC(=O)CC2CCCCC2)c([N+](=O)[O-])c(=O)[nH]1
- Mtb growth: -1%

COc1ccc(Cl)cc1C(=O)Nc1c(C(=O)Nc2ccc3c(c2)OCCO3)oc2ccccc12
- Mtb growth: -9%

CCOC(=O)CSc1nnc(CNC(=O)c2ccc(OC)cc2)n1-c1ccccc1Cl
- Mtb growth: -5%

Cc1ccc2sc(NNC(=O)c3coc4ccccc4c3=O)nc2c1C
- Mtb growth: 35µg/mL*

Cc1cnc(=O)[nH]c1SCC(=O)N1CCCC1
- Mtb growth: -9%

Cc1cccc(NS(=O)(=O)c2c[nH]c(=O)[nH]c2=O)c1
- Mtb growth: -3%

COc1ccc(-n2ccnc(SCc3ccc(F)cc3)c2=O)cc1OC
- Mtb growth: -6%

CCOc1ccc(C(=O)c2cn(Cc3cccc(F)c3)c3ccc(OC)cc3c2=O)cc1
- Mtb growth: 4%

COc1ccc(Cl)cc1C(=O)NCCc1cc2ccc(C)cc2[nH]c1=O
- Mtb growth: 6%

CC(=O)c1sc(NC(=O)c2ccc(Cl)s2)nc1-c1ccccc1
- Mtb growth: -1%

CCc1c(C)c(C#N)c2nc3ccccc3n2c1N1CCN(CCO)CC1
- Mtb growth: -5%

CCCCOc1cc(C)cc2oc(=O)cc(-c3ccccc3)c12
- Mtb growth: -1%

N#CC1=C(SCC(=O)N(c2ccccc2)c2ccccc2)NC2=C(C(=O)CCC2)C1c1ccco1 (stereo not drawn)
- Mtb growth: 6%

O=C(NCCc1nnc2ccc(SCC(=O)N3CCCCCC3)nn12)c1ccc(F)cc1
- Mtb growth: -6%

COc1ccc(-n2c(=O)[nH]cc(C(=O)Nc3ccc([N+](=O)[O-])cc3)c2=O)cc1OC
- Mtb growth: -5%

CN1C(=O)NC(c2cccc(F)c2)C(C(=O)c2cccs2)C1(O)C(F)(F)F (stereo not drawn)
- Mtb growth: -7%

Cc1ccccc1NC(=O)Cn1cnc2c(cnn2-c2ccc(F)cc2)c1=O
- Mtb growth: 1%

CNc1nc2c(c(=O)[nH]c(=O)n2C)n1CCCc1ccccc1
- Mtb growth: 5%

O=c1oc2ccc(Cl)cc2cc1-c1nnc(Nc2cccc(C(F)(F)F)c2)s1
- Mtb growth: -2%

CCOc1ccc(S(=O)(=O)c2cn(Cc3ccc(F)cc3)c3ccc(F)cc3c2=O)cc1
- Mtb growth: -9%

O=C(CCc1n[nH]c(=O)[nH]c1=O)N/N=C/c1ccccc1Cl
- Mtb growth: -3%

COc1cccc(NC(=O)Cn2cc(C(=O)c3ccc(C)cc3)c(=O)c3cc4c(cc32)OCO4)c1
- Mtb growth: 12%

CCOC(=O)/C(C#N)=C/c1cn(CCC(=O)O)nc1-c1ccc(Br)cc1
- Mtb growth: -23%

Cc1[nH]c2ccc(N3CCOCC3)cc2c(=O)c1CN1CCC(C)CC1
- Mtb growth: 5%

CC1=C(C(=O)Nc2cccc(C)c2C)C(c2cccc(Br)c2)NC(=O)N1 (stereo not drawn)
- Mtb growth: -2%

O=C(Cc1ccccc1)N/N=C/c1ccccc1C(=O)O
- Mtb growth: 0%

Cc1ccc(NC(=O)CSc2ncc(S(=O)(=O)c3ccc(Cl)cc3)c(=O)[nH]2)cc1C
- Mtb growth: -5%

COc1ccc(NC(=O)CC2S/C(=N/N=C3\CSC(=O)N3)NC2=O)cc1 (stereo not drawn)
- Mtb growth: 7%

Cc1cccc(-n2ncc3c(Cl)ncnc32)c1
- Mtb growth: 12%

O=C1CCc2cc(S(=O)(=O)NCc3ccc4c(c3)OCO4)cc3c2N1CC3
- Mtb growth: -4%

O=C(CSc1ccc2nnc(CCNC(=O)c3ccc(F)cc3)n2n1)Nc1ccccc1
- Mtb growth: -2%

COc1cc(C(=O)Nc2c(C(=O)Nc3ccccc3)oc3ccccc23)cc(OC)c1OC
- Mtb growth: 2%

COc1ccc(N2C(=O)C3N=NN(Cc4ccccc4F)C3C2=O)cc1 (stereo not drawn)
- Mtb growth: -17%

COc1ccc(S(=O)(=O)NCC(c2cccs2)N2CCc3ccccc3C2)cc1 (stereo not drawn)
- Mtb growth: 8%

COc1ccc(S(=O)(=O)Nc2cccc(C(=O)Nc3nc4cc5c(cc4s3)OCO5)c2)cc1
- Mtb growth: 29%

O=C(CCN1C(=O)/C(=C\c2ccco2)SC1=S)Nc1ccc([N+](=O)[O-])cc1
- Mtb growth: -10%
